Screening results from PubChem BioAssay.
rRNA inh HTS – reduced GFP signal of wild-type E. coli, primary screen, bacterial rRNA inhibitor project, GFP/RFP fluorescence, OD600, single point. E. coli WT GFP vs humanized-ribosome RFP mutants, 24 h; hits give low values; DMSO median 0, no signal -100. GFP signal change (wild-type ribosome), % (no concentration beside the values). 350,000 tested, 1.6% active. AID 720706, 2013;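 active = significant combined selectivity score with lowered wild-type GFP, culture density cut under 30%, mutant RFP and density less affected; inactive = any of these conditions unmet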; note: one replicate is shown; some compounds called inactive have numbers as strong as hits
AF4-AF9 inh – inhibitors of AF4 peptide binding to AF9, primary screen, biochemical, AlphaScreen, biotin-AF4 peptide, FLAG-AF9, single point. 350,000 tested, 0.47% active. Protein AF-9 (Homo sapiens), P42568. inhibition, % at 10 µM. AID 651704, 2012;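 active = every replicate reaching a set inhibition limit, whatever the replicate mean, cut at about 25% in these data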;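 note: 0% = plate neutral control median and 100% = total signal loss; the record names both 10 and 1 µM as test concentration; the first replicate is given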
Target sequence (P42568 whole entry, looked up): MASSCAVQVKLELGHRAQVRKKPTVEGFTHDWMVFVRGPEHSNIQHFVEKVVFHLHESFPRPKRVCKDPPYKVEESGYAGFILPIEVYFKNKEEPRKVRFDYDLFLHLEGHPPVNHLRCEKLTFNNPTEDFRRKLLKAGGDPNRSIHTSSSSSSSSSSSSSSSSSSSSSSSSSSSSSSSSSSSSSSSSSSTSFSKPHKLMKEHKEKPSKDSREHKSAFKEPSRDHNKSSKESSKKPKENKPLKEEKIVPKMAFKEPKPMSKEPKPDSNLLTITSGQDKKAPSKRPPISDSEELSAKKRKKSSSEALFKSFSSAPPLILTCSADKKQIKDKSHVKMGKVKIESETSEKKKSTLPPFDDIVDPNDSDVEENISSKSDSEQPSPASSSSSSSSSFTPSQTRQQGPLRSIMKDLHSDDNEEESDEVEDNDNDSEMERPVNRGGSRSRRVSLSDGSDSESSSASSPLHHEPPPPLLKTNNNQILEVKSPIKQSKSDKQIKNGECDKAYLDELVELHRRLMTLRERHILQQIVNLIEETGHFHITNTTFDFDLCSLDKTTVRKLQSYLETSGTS
rRNA inh HTS OD600 – also measured in rRNA inh HTS; calls as there; OD600 change, %; measured here: OD600 growth;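 optical density of the mix in the first replicate; 0 = DMSO median and -100 = no signal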
rRNA inh HTS RFP – second read-out of rRNA inh HTS, no call of its own (marks repeat the call); RFP signal change, %; measured here: RFP humanized mutant strains;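 first replicate; 0 = DMSO median and -100 = no signal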
The depositor's hits bear a star; & = joins results of further samples. These rows are one share of the data; rates above refer to the full screens.

SMILES	rRNA inh HTS	rRNA inh HTS OD600	rRNA inh HTS RFP	AF4-AF9 inh
COc1ccc(-c2cnc3c(c2)C(=O)N([C@@H](C)CO)C[C@@H](C)[C@H](CN(C)C(=O)Cc2ccccc2)O3)cc1	-4	2	-1.1	0.2
COc1ccccc1S(=O)(=O)N[C@H]1CC[C@@H](CCNC(=O)C2CCCC2)O[C@@H]1CO	2	4	1.4	-15
COc1ccc(-c2cn(CC[C@H]3CC[C@@H](NC(=O)NC(C)C)[C@@H](CO)O3)nn2)cc1	1	5	2.4	-0.4
O=C(C[C@H]1C=C[C@H](NS(=O)(=O)c2ccc(F)cc2)[C@@H](CO)O1)NCc1ccncn1	-1	-8	2.2	0.3
CN(C)C(=O)[C@H]1[C@H](CO)[C@H]2Cn3c(cccc3=O)[C@H]2N1C(=O)C1CCCCC1	4	2	0.0	-1.0
COc1ccccc1S(=O)(=O)N1C[C@@H]2N[C@H](C1)C2c1ccc(-c2ccc(F)cc2)cc1 (some centres not stated)	0&-58	-47&-76	0.3&-7.1	-1.6&2.1
C[C@@H]1CN([C@H](C)CO)S(=O)(=O)c2ccc(C#C[C@@H](C)O)cc2O[C@@H]1CN(C)C(=O)Nc1ccccc1	-3	1	-1.0	-0.3
O=C(N[C@@H]1CC[C@@H](CCn2cc(C3(O)CCCC3)nn2)O[C@@H]1CO)C1CCCCC1	1	10	-2.5	-1.5
Cc1noc(C)c1S(=O)(=O)Nc1cccc2c1O[C@H](CN(C)CC1CC1)[C@H](C)CN([C@@H](C)CO)C2=O	6	7	-2.1	-3.1
COc1cccc(CNC(=O)[C@H]2CCCN2C(=O)[C@H]2CCCN2C(=O)c2ccc(F)cc2)c1	2	11	-3.5	0.2
CC(=O)c1cccc(Nc2ccc(Br)cc2)c1	-11	-20	-7.5	-3.0
O=C(C[C@H]1CC[C@@H](NC(=O)C2CCC2)[C@@H](CO)O1)NCC1CC1	0	11	-1.1	0.4
O=C(NC1CCCCC1)N1CC2(C1)[C@@H](c1ccccc1)[C@@H](CO)N2S(=O)(=O)Cc1ccccc1	-3	-6	2.0	1.2
CC(C)NC(=O)Nc1ccc2c(c1)C(=O)N([C@@H](C)CO)C[C@H](C)[C@H](CN(C)C(=O)Nc1ccccc1)OCCCC[C@H](C)O2	3	3	-2.6	-0.8
CCNC(=O)C1(C)CCN(C(=O)c2cc(F)cc(F)c2)C1 (configuration not stated)	7	6	1.2	0.8
C[C@@H]1CCCCO[C@@H](CN(C)S(=O)(=O)c2ccc(F)cc2)[C@H](C)CN([C@H](C)CO)C(=O)c2cc(NS(=O)(=O)c3cn(C)cn3)ccc2O1	-3	-9	0.6	-1.2
COC(=O)C[C@@H]1CC[C@H]2[C@H](COc3ccc(NC(=O)c4ccc(C(F)(F)F)cc4)cc3C(=O)N2C)O1	-2	-13	2.0	0.0
C[C@@H]1CN([C@@H](C)CO)S(=O)(=O)c2ccc(-c3ccccc3)cc2O[C@@H]1CN(C)Cc1cncnc1	1	-12	0.6	2.1
Cn1cnc(S(=O)(=O)N2CCCCN3[C@H](CO)[C@@H](c4ccc(-c5ccccc5)cc4)[C@@H]3C2)c1	3	-2	4.8	-2.9
C[C@H](CO)N1C[C@H](C)[C@H](CN(C)Cc2ccc(C(=O)O)cc2)Oc2ccc(NS(=O)(=O)c3ccccc3)cc2C1=O	-3	1	-5.6	-2.7
C[C@H]1CN([C@@H](C)CO)C(=O)c2cc(NC(=O)C3CCCCC3)ccc2O[C@@H]1CN(C)S(=O)(=O)c1cn(C)cn1	-1	3	0.2	-0.1
COC(=O)[C@@]12C[C@@H](CC(=O)NCc3cccc(C(F)(F)F)c3)C(=O)N(Cc3ccc4c(c3)OCO4)C1=CCC(C)(C)C2	41	19	2.0	1.9
C[C@H](CO)N1C[C@H](C)[C@@H](CN(C)Cc2ccc(Oc3ccccc3)cc2)Oc2c(cccc2N(C)C)C1=O	-16	-30	5.8	2.4
Cc1ccc(-c2cnc3c(c2)C(=O)N([C@@H](C)CO)C[C@H](C)[C@@H](CN(C)Cc2ccccc2F)O3)cc1	-8	-55	33	5.8
COc1ccc(NC(=O)N(C)C[C@H]2Oc3ccc(NS(=O)(=O)c4cccs4)cc3C(=O)N([C@H](C)CO)C[C@H]2C)cc1	-3	0	1.8	-2.1
SMILES	rRNA inh HTS	rRNA inh HTS OD600	rRNA inh HTS RFP	AF4-AF9 inh
CCCc1cn(CC[C@H]2CC[C@H](NC(=O)C3CCCCC3)[C@H](CO)O2)nn1	1	6	-1.5	-1.2
O=C(C[C@@H]1C[C@H]2c3cc(NC(=O)Nc4ccccc4)ccc3O[C@H]2[C@H](CO)O1)NCc1ccccc1	3	-3	1.8	4.4
O=C(Cc1cccnc1)N1CC2(C1)[C@@H](c1ccccc1)[C@@H](CO)N2C(=O)C1CC1	5	13	-3.9	-9.2
COc1ccc2c3c(n(C)c2c1)[C@H](CO)N(C(=O)NC(C)C)CC31CN(Cc2nccs2)C1	1	-2	0.6	-0.9
C[C@@H](NC(=O)[C@@H]1CCCN1C(=O)[C@@H]1CCCN1C(=O)c1ccc(Cl)cc1)c1ccccc1	2	3	1.1	-2.6
CCc1nc2ccc(C(=O)Nc3ccc(OC)c(OC)c3)cn2c1N(C)CCC(C)C	-31	-38	36	3.4
Cc1ccc(S(=O)(=O)Nc2ccc3c(c2)C(=O)N([C@@H](C)CO)C[C@@H](C)[C@H](CN(C)S(=O)(=O)c2cn(C)cn2)O3)cc1	1	10	-1.1	2.4
Brc1ccc2nc(-c3ccco3)c(CC3CCCCC3)n2c1	-3	2	16	-1.6
Cc1ccc(S(=O)(=O)N[C@H]2CC[C@@H](CCNC(=O)c3ccccc3F)O[C@H]2CO)cc1	0	-2	-2.9	-0.9
C[C@H](CO)N1C[C@H](C)[C@@H](CN(C)S(=O)(=O)c2cccc(F)c2)Oc2ncc(C#CC3CC3)cc2C1=O	0	-9	15	-0.1
CCS(=O)(=O)N1CC(=O)N2[C@@H](CO)[C@H](c3ccc(-c4ccccc4F)cc3)[C@@H]2C1	2	-2	-4.7	-0.5
CCCC(=O)Nc1ccc2c(c1)C(=O)N(C)[C@@H]1CC[C@H](CC(=O)Nc3ccccc3)O[C@@H]1CO2	-2	-2	-0.3	-1.5
C[C@@H]1CN([C@H](C)CO)C(=O)c2cc(NC(=O)Nc3ccc(C(F)(F)F)cc3)ccc2O[C@@H](C)CCCCO[C@@H]1CN(C)Cc1ccc2c(c1)OCO2	1	-4	-0.8	1.7
CCCC(=O)Nc1ccc2c(c1)OC[C@@H](C)N(Cc1cncnc1)C[C@H](C)[C@@H](OC)CN(C)C2=O	1	-1	-1.7	-1.0
C[C@H](CO)N1C[C@H](C)[C@H](CN(C)S(=O)(=O)c2ccc(F)cc2)Oc2ccc(NC(=O)CCCN(C)C)cc2C1=O	3	7	-2.6	0.4
CO[C@@H]1CN(C)C(=O)c2ccc(NC(=O)Nc3ccccc3F)cc2OC[C@H](C)NC[C@H]1C	-1	-2	-0.8	0.8
O=C(c1ccccc1F)N1CC(=O)N2[C@H](CO)[C@H](c3ccc(-c4cccnc4)cc3)[C@@H]2C1	0	10	-5.6	-1.4
COc1cccc(-c2cnc3c(c2)C(=O)N([C@H](C)CO)C[C@@H](C)[C@@H](CN(C)C(=O)Nc2c(C)noc2C)O3)c1	2	0	3.5	0.1
CO[C@H]1CN(C)C(=O)c2cc(NS(=O)(=O)CC(F)(F)F)ccc2OC[C@H](C)N(C(=O)c2ccc3c(c2)OCO3)C[C@H]1C	-2	-4	0.6	-1.5
CC(=O)Nc1ccc2c(c1)C(=O)N(C)[C@H]1CC[C@H](CC(=O)NCc3ccc(Cl)cc3)O[C@H]1CO2	-2	-5	0.6	0.0
O=C(Nc1ccc(Cl)cc1)C1Cc2c(-c3cccc(F)c3)ccnc2O1 (configuration not stated)	-11	-51	17	-0.6
CN1c2ccc(-c3ccccc3)cc2[C@H]2[C@H](CCN2C(=O)c2cccc(F)c2)[C@H]1CO	-2	-41	29	8.6
CCCN(C)C[C@H]1OCCCC[C@H](C)Oc2ccc(NS(=O)(=O)c3cccs3)cc2C(=O)N([C@H](C)CO)C[C@H]1C	1	-3	2.3	3.6
Fc1cccc(Cc2c(-c3ccco3)nc3c(Cl)cc(C(F)(F)F)cn23)c1	-3	4	-1.3	-2.2
COc1cccc(C(O)c2ncc(-c3ccccc3Cl)[nH]2)c1 (configuration not stated)	5	-7	5.3	7.4

Reprinted from the listing for reference:
SMILES	rRNA inh HTS	rRNA inh HTS OD600	rRNA inh HTS RFP	AF4-AF9 inh
O=C(C[C@@H]1C[C@H]2c3cc(NC(=O)Nc4ccccc4)ccc3O[C@H]2[C@H](CO)O1)NCc1ccccc1	3	-3	1.8	4.4
O=C(Cc1cccnc1)N1CC2(C1)[C@@H](c1ccccc1)[C@@H](CO)N2C(=O)C1CC1	5	13	-3.9	-9.2
COc1ccc2c3c(n(C)c2c1)[C@H](CO)N(C(=O)NC(C)C)CC31CN(Cc2nccs2)C1	1	-2	0.6	-0.9
C[C@@H](NC(=O)[C@@H]1CCCN1C(=O)[C@@H]1CCCN1C(=O)c1ccc(Cl)cc1)c1ccccc1	2	3	1.1	-2.6
CCc1nc2ccc(C(=O)Nc3ccc(OC)c(OC)c3)cn2c1N(C)CCC(C)C	-31	-38	36	3.4
Cc1ccc(S(=O)(=O)Nc2ccc3c(c2)C(=O)N([C@@H](C)CO)C[C@@H](C)[C@H](CN(C)S(=O)(=O)c2cn(C)cn2)O3)cc1	1	10	-1.1	2.4
Brc1ccc2nc(-c3ccco3)c(CC3CCCCC3)n2c1	-3	2	16	-1.6
Cc1ccc(S(=O)(=O)N[C@H]2CC[C@@H](CCNC(=O)c3ccccc3F)O[C@H]2CO)cc1	0	-2	-2.9	-0.9
C[C@H](CO)N1C[C@H](C)[C@@H](CN(C)S(=O)(=O)c2cccc(F)c2)Oc2ncc(C#CC3CC3)cc2C1=O	0	-9	15	-0.1
CCS(=O)(=O)N1CC(=O)N2[C@@H](CO)[C@H](c3ccc(-c4ccccc4F)cc3)[C@@H]2C1	2	-2	-4.7	-0.5

Following part:
SMILES	rRNA inh HTS	rRNA inh HTS OD600	rRNA inh HTS RFP	AF4-AF9 inh
O=C(C[C@H]1C=C[C@@H](NC(=O)C2CCC2)[C@@H](CO)O1)NC1CCC1	2	2	-1.9	-2.6
COc1cccc(CN(C)C(=O)c2cccc(S(=O)(=O)N3CCN(c4ccccc4)CC3)c2)c1OC	-15	-8	-1.6	6.2
C[C@@H](NC(=O)C[C@H]1CC[C@@H]2[C@H](COC[C@@H](O)CN2C(=O)Nc2cccc(Cl)c2)O1)c1ccccc1	-56	-76	-19	1.2
C[C@H]1CN([C@@H](C)CO)S(=O)(=O)c2ccc(C#CC3CC3)cc2O[C@@H]1CN(C)C(=O)c1ccccn1	-4	0	1.9	-0.5
CCC(=O)N(C)C[C@@H]1Oc2cc(-c3cncnc3)ccc2S(=O)(=O)N([C@@H](C)CO)C[C@H]1C	2	-3	-4.3	3.1
O=C(C1CC1)N1CC(=O)N2[C@@H](CO)[C@@H](c3ccc(-c4ccccc4F)cc3)[C@@H]2C1	-3	4	-0.6	-2.9
C[C@H](CO)N1C[C@H](C)[C@@H](CN(C)Cc2ccccn2)Oc2ncc(C#Cc3cccc(F)c3)cc2C1=O	3	0	14	-4.7
C[C@H]1CN([C@@H](C)CO)C(=O)c2cc(NS(C)(=O)=O)ccc2O[C@@H]1CN(C)Cc1ccccc1	2	-1	-1.3	-1.9
Cc1noc(C)c1-c1ccc(C(=O)NCc2cccs2)c2occc12	-7	-30	-7.5	1.9
O=C(c1cccc(F)c1)N1CCCCN2[C@@H](CO)[C@H](c3ccc(C#CC4(O)CCCC4)cc3)[C@@H]2C1	0	4	3.3	-4.3
C[C@H]1CN([C@@H](C)CO)C(=O)c2cc(NC(=O)Nc3ccc(F)cc3)ccc2O[C@@H]1CN(C)Cc1ccc2c(c1)OCO2	0	-9	1.2	4.5
C[C@@H]1CN([C@@H](C)CO)C(=O)c2ccccc2-c2ccccc2CO[C@@H]1CN(C)S(=O)(=O)CC(F)(F)F	-3	7	-3.3	-4.2
COc1cccc(C(=O)Nc2ccc3c(c2)C(=O)N(C)C[C@@H](OC)[C@H](C)CN(C(=O)C2CCC2)[C@H](C)CO3)c1	-3	1	-1.9	-0.5
CO[C@@H]1CN(C)C(=O)c2cc(NS(=O)(=O)c3cccc(F)c3)ccc2OC[C@@H](C)NC[C@@H]1C	4	-3	-0.8	-3.5
CN1C2C=CC(=O)C1C1C(=O)N(c3ccccc3)C(=O)C12 (configuration not stated)	14	21	-0.5	-4.5
O=C(c1cnccn1)N1CC(=O)N2[C@H](C1)[C@H](c1ccc(-c3cccc(F)c3)cc1)[C@@H]2CO	-3	6	-5.8	13
CC(C)NC(=O)N1CCCCN2[C@H](CO)[C@@H](c3ccc(Br)cc3)[C@@H]2C1	2	1	-2.1	-3.3
NCC[C@H]1CC[C@@H](NC(=O)CCN2CCCCC2)[C@H](CO)O1	3	-2	-0.4	59*
